Mtb hypoxia inh: inhibitors of hypoxia-regulated fluorescent reporter in Mycobacterium tuberculosis. M. tuberculosis hypoxia-regulated fluorescent reporter, fluorescence. fluorescence inhibition, % (no concentration beside the values). 300,000 compounds, 0.1% hits. AID 1159583;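 active = 35 to 45% if threefold the growth effect, above 45% if 1.5-fold the growth effect; inactive = the rest, general growth blockers included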;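 also: wells of about 50 µL received 100 nL stock; 0% = vehicle wells and 100% = reference inhibitor wells; whole bacteria with a GFP reporter of the hypoxia response; strong numbers were not always called active; many hits fall short of the cut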
ugtP null kill: growth inhibition of S. aureus ugtP deletion strain | S. aureus RN4220 ugtP deletion, OD600 growth, 16 h; some inactives read as strong as hits | growth inhibition, % (no concentration beside the values) | 330,000 compounds, 0.54% hits;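 active = z-score under -3 and OD600 up to 0.15 on both plates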;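 also: plate controls were untreated wells for no effect and antibiotic for full effect; wells of about 80 µL received 100 nL stock; the first replicate is given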
BJeLR lethal: kills HRASV12-expressing BJeLR cells; BJeLR (HRASV12) viability, CellTiter-Glo ATP luminescence, 48 h; reference of the scale not given here; inhibition, % (test concentration not listed); 300,000 compounds, 0.17% hits; AID 1554;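 active = replicate mean above 50%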;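 also: 50 nL library stock added to about 25 µL; numbers are from one replicate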
Bead autofluor: counter-screen for toxin protease inhibitors: compound fluorescence; compound autofluorescence counterscreen, microsphere flow cytometry; hits give high values; fluorescence intensity (test concentration not listed); 360,000 compounds, 3.1% hits; AID 624483;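 active = at least 3 SD above the mean of all compounds, about 16000 in these data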;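 also: 100 nL of 1 mM stock went into each well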
PrP 5UTR inh: inhibition of PrP 5' UTR reporter expression; 340,000 compounds, 0.35% hits; cell-based PrP 5' UTR mRNA reporter, plate reader; inhibition, % (test concentration not listed); AID 488862;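 active = every replicate at 50% or more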;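 also: 0 = median of the neutral control wells; tested in H4 reporter cells; numbers are from one replicate; inactives centre near -14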
RN4220 kill: S. aureus RN4220 growth inhibition | OD600, 16 h | inhibition, % (concentration not given with the values) | AID 1259311 | 330,000 compounds, 0.33% hits;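 active = z-score of -3 or lower and OD600 up to 0.18 on both plates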;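 also: plate controls were untreated cells for no effect and reference antibiotic for full effect; stock transfer was 100 nL into about 80 µL; one replicate is shown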
Mtb hypoxia inh growth: also measured in Mtb hypoxia inh; calls as there; growth inhibition, %; measured here: M. tuberculosis growth (absorbance);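 0% = vehicle and 100% = reference antibiotic; read after six days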
* = called active by the depositor; . = no result given; & = joins results of further samples. Outcome played no part in choosing rows; about 4% have a hit in one of these screens.

SMILES	Mtb hypoxia inh	Mtb hypoxia inh growth	ugtP null kill	BJeLR lethal	Bead autofluor	PrP 5UTR inh	RN4220 kill
O=C(Nc1ccc(F)cc1)c1ccc2nsnc2c1	5	2	2	7	4192	-62	3.4
CC(=O)Oc1ccc(C(=O)N2c3ccccc3NC(=O)C2C)cc1 (stereo not given)	-6	-6	3	13	3214	9	-0.8
CC(C)c1ccc(OCc2cccc(C(=O)N/N=C/c3cccnc3)c2)cc1	.	.	.	11	8450	3	.
O=c1c2ccccc2oc2ncccc12	.	.	3	-4	3650	-3	3.7
O=C(COc1ccc(C(=S)N2CCOCC2)cc1)N1CCOCC1	-9	-2	-8	1	7074	-9	-1.5
CN(C)c1nc(N(C)C)nc(N(C#N)CCCl)n1	6	12	1	-12	4693	-23	7.9
O=C(Nc1ccc(F)cc1F)c1cncc(Br)c1	3	9	4	-1	2545	-11	-0.7
CCC1=C(OC(=O)N(CC)CC)N2C(=O)OC(=NCC(=O)OC)[C@]2(C)[C@H]2C1=CC[C@H]1C(=O)N(CC)C(=O)[C@H]12	.	.	.	4	3986	-16	.
Clc1c(CSc2nc3ccccc3o2)nc2ccccn12	7	11	10	10	3155	-73	15
Cc1ccc(S(=O)(=O)/N=C(\CN2CCCCC2)N2CCOCC2)cc1	.	.	.	2	10539	7	.
O=C1C=CC(=Nc2ccc3c(c2)Cc2cc(F)ccc2-3)O1	9	8	8	.	2769	-14	3.2
CCOC(=O)c1oc2cc(C)cc(O)c2c(=O)c1-c1csc(C)n1	2	0	3	5	3184	-18	7.2
CC(C)(C)C(=O)Nc1ccnn1C1CCN(C(=O)c2ccc(Cl)cc2F)CC1	1	-2	7	0	6018	-11	0.5
COc1ccc(N2CCN(C3CCCN(Cc4ccc(F)c(F)c4)C3)CC2)cc1 (stereo not given)	4	12	2	-9	3850	-15	-1.7
CCCS/C(N)=N/N=C/c1cc(C)ccc1O	.	.	.	-1	2468	-78	.
COc1ccc(-c2cc(C(=O)N/N=C(\C)c3cccnc3)c3cc(C)ccc3n2)cc1OC	.	.	.	4	6067	-16	.
Cc1ccc(Cl)cc1NC(=S)Nn1cnnc1	-4	-6	6	5	4207	-8	2.2
Nc1c(N(CCC2=CCCCC2)C(=O)c2ccc([N+](=O)[O-])o2)c(=O)[nH]c(=O)n1Cc1ccccc1	6	4	-6	10	.	-6	30
CC(NC(=O)c1[nH]cnc1C(=O)Nc1ccc(CNC(=O)OC(C)(C)C)cc1)C(=O)OC(C)(C)C (stereo not given)	7	13	-40	.	.	.	4.5
CCOc1cccc(C2C(C(=O)c3ccco3)=C(O)C(=O)N2c2nnc(C)s2)c1 (stereo not given)	4	4	-7	.	3898	-28	-0.5
COc1cc(CN2CCC(Cc3ccccc3)CC2)c([N+](=O)[O-])cc1OC	8	12	11	11	3755	-1	1.8
COc1ccccc1N1CCN(S(=O)(=O)c2ccc(-n3cnnn3)c(C)c2)CC1	0	-9	0	-9	2997	-11	4.2
Cc1ccccc1NC(=O)Cn1c(O)c(N=NC(=O)c2ccccc2O)c2ccccc21	-13	-43	-13	1	2417	-32	-5.7
CN(C(=O)c1ccccc1)c1ccccc1C(=O)NCCc1ccccc1	2	-8	3	2	5836	-23	0.5
O=C(Cc1ccc(F)cc1)N1CCC2(CC1)NCCc1[nH]cnc12	10	-3	3	-3	4200	-23	4.8

Next part, overlapping the part above by 2 compounds.
SMILES	Mtb hypoxia inh	Mtb hypoxia inh growth	ugtP null kill	BJeLR lethal	Bead autofluor	PrP 5UTR inh	RN4220 kill
CN(C(=O)c1ccccc1)c1ccccc1C(=O)NCCc1ccccc1	2	-8	3	2	5836	-23	0.5
O=C(Cc1ccc(F)cc1)N1CCC2(CC1)NCCc1[nH]cnc12	10	-3	3	-3	4200	-23	4.8
O=C(O)C1=C[C@@H](C2CCCCC2)C[C@@H](OCCCCO)O1	.	.	.	-4	3650	-1	.
CC(C)(C)NC(=O)COC(=O)c1ccc(Cl)nc1	10	8	5	4	4487	-5	6.0
Cc1ccc(C(C)C)c(OCC(O)CN2CCN(CCO)CC2)c1 (stereo not given)	10	5	2	-7	3248	-10	4.2
C/C(=C/C(=O)N1CCc2ccccc21)C(=O)O	14	12	4	7	2160	-24	5.1
Cc1ccc(C(=O)CNc2cccc(Cl)c2)cc1	-3	3	0	5	2262	-22	10
Cc1cc(C)cc(N(CCC#N)C(=O)CN2C(=O)NC3(CCCC3)C2=O)c1	5	4	7	-13	2734	-17	-4.0
CCOC(=O)c1c(S(=O)(=O)N(C)C2CCCCC2)c(C)n(C)c1C	8	8	0	5	5126	-29	2.3
CCOc1ccc(NC(=O)COc2ccc(C(=O)N3CCC(C(N)=O)CC3)cc2OC)cc1	0	6	-1	-7	5391	-8	-3.7
N#CCCN(C(=O)COC(=O)CNC(=O)C12CC3CC(CC(C3)C1)C2)c1ccccc1	9	-4	4	9	4858	-14	2.5
COc1ccc(-n2cc(CN3CCC(OC)CC3)c(-c3cccc(F)c3)n2)cc1	1	9	3	5	4068	-27	9.3
Cc1ccc(/C=C/C(=O)O)cc1S(=O)(=O)NCCCO	.	.	-6	-1	2900	-14	-1.4
Fc1cccc(NC(=S)NCc2ccccc2Cl)c1	6	12	-19	1	4469	-15	1.1
CCOc1ccc(N2C(=O)CC(Cc3cc(C)cc(C)c3)C2=O)cc1 (stereo not given)	13	3	13	-3	4457	-46	4.3
COc1ccc([N+](=O)[O-])cc1N(CC(=O)O)S(C)(=O)=O	-7	-2	10	1	4203	-18	4.7
COc1ccc(/C=C/C(=O)c2ccc(Cl)cc2)c(OC)c1	18	17	2	5	18548*	-18	5.0
COc1ccc(N2CCN(C(=O)c3cc(C)oc3C)CC2)cc1	13	0	6	-4	4366	-10	-0.4
CCOc1ccccc1C1CC(=O)NC2=C1C(=O)CC(C)(C)C2 (stereo not given)	.	.	-10	-1	2429	-22	5.5
O=c1[nH]c(=O)n(C2CCCO2)cc1Br (stereo not given)	.	.	.	-4	2448	-9	.
CCN(CC)CCOC(=O)c1cccc(OC)c1	13	0	-1	-12	3333	-10	-8.3
Cc1cc2cc(CN(CC3CCCO3)C(=S)NCc3ccco3)c(=O)[nH]c2cc1C (stereo not given)	9	3	4	3	2825	-24	3.1
CCN(CC)CCNC(=O)C(=O)NCC1OCCN1S(=O)(=O)c1cccs1 (stereo not given)	9	8	1	-1	4982	-21	2.6
CCc1ccccc1N1C(=O)C2C3C=CC(CC3)C2C1=O (stereo not given)	15	7	2	5	3702	-15	7.8
Clc1ccc(/C=N/NC2=Nc3cccc4cccc2c34)cc1	.	.	.	-1	2827	-78	.
COc1cccc2cc(C(=O)OCC(=O)NCc3ccc4c(c3)OCO4)c(=O)oc12	-2	4	6	-1	6151	-61	11
CC(N)Cc1c[nH]c2c1ccc1ccccc12 (stereo not given)	1	-6	-1	-3	4996	-36	-1.9
SMILES	Mtb hypoxia inh	Mtb hypoxia inh growth	ugtP null kill	BJeLR lethal	Bead autofluor	PrP 5UTR inh	RN4220 kill
Cc1c(Cl)cccc1NC(=S)Nc1ccc2[nH]c(=O)[nH]c2c1	-10	3	-1	-3	4573	-4	-7.0
COc1cc([C@@H]2c3cc4c(cc3[C@@H](OC)[C@H]3COC(=O)[C@H]23)OCO4)cc(OC)c1O	.	.	.	22	3116	-20	.
CSCCC(NS(=O)(=O)c1cc(C(=O)O)ccc1Cl)C(=O)O (stereo not given)	10	0	4	2	3377	-29	5.3
Cc1cccc(C)c1NC(=O)CN(C)C(=O)/C=C/c1cccs1	4	7	9	-3	2258	-13	4.4
Cc1nn(C)c(C)c1/C=C/C(=O)O	8	6	7	-1	4118	-16	4.4
COc1ccccc1N1C(C)=CC(=C(C#N)c2nc3ccccc3s2)C=C1C	10	8	4	-6	3142	14	-2.8
CC1CCN(Cc2c(C(=O)N/N=C/c3ccc(C(F)(F)F)cc3)nnn2-c2nonc2N)CC1	.	.	.	-13	4313	-2	.
CC(C)CCNC(=O)CNC(=S)N(CCCN1CCOCC1)Cc1cccs1	10	9	11	2	7279	-13	5.0
O=C(COc1ccc(Cl)cc1Cl)NCC(=O)N/N=C/c1c[nH]c2ccccc12	.	.	.	-3	2527	-18	.
COc1cccc(/C=N/n2c(-c3cc(C)[nH]n3)n[nH]c2=S)c1OC	.	.	.	-1	3582	-27	.
O=C1CC(N2CCN(c3ccc(S(=O)(=O)N4CCCC4)cc3)CC2)C(=O)N1c1ccc(F)cc1 (stereo not given)	.	.	-4	-4	2864	-16	-0.2
O=C(c1cccc(-n2cccc2)c1)N1CCN(S(=O)(=O)c2ccccc2Br)CC1	-4	2	1	.	5926	3	-2.1
Cc1ccc(C(=O)C2CC2)cc1C	11	1	10	.	2884	-14	9.7
Cc1cc(C)n2c(nc3ccccc32)c1C(=O)NN	13	11	5	-4	5885	.	0.1
COc1ccc(Br)cc1C(=O)NC(=S)Nc1c(C)n(C)n(-c2ccccc2)c1=O	3	-2	10	-3	2838	-23	2.0
COc1cc(NC(=O)Cc2cccs2)c(C(=O)O)cc1OC	3	0	3	-5	3803	-15	7.6
CN1CCN(CC(O)COc2ccc(S(=O)(=O)N3CCOCC3)cc2)CC1 (stereo not given)	22	33	9	.	6444	-30	0.5
COC(=O)c1ccccc1NC(=O)c1onc(C)c1Cl	7	-6	10	9	3208	-15	2.1
CC(=O)Nc1cccc(NC(=O)C2CCCN2C(=O)Nc2cccc(F)c2)c1 (stereo not given)	.	.	5	0	3543	-1	8.7
Cc1cccc(N(Cc2ccccc2)C(=O)c2ccccc2S(C)(=O)=O)c1	2	-3	7	3	4481	7	7.7
Cc1cc(Oc2ccccc2)nc(SCC(=O)Nc2ccc(Cl)cc2Cl)n1	9	7	-7	-9	18063*	-8	6.0
COCCNC(=S)NN=C(C)c1cc2ccccc2o1	10	-1	-2	.	.	.	5.8
CC(=O)Nc1ccccc1C(=O)C(=O)Nc1ccccc1	0	8	-4	-6	2498	-23	1.6
CCc1ccc(C=NNc2nn[nH]n2)cc1	-3	-6	-9	.	.	.	0.8
CC(C)C(=O)Nc1ccc(NC(=O)c2ccc3c(c2)OCO3)cc1	0	-1	6	-7	3009	-6	3.4

Single values from the list.
`CSCCC(NS(=O)(=O)c1cc(C(=O)O)ccc1Cl)C(=O)O` (stereo not given) in Mtb hypoxia inh reads 10
`Cc1nn(C)c(C)c1/C=C/C(=O)O` in PrP 5UTR inh reads -16
`O=C(COc1ccc(Cl)cc1Cl)NCC(=O)N/N=C/c1c[nH]c2ccccc12` in Bead autofluor reads 2527
`CN1CCN(CC(O)COc2ccc(S(=O)(=O)N3CCOCC3)cc2)CC1` (stereo not given) in ugtP null kill reads 9
`CCc1ccc(C=NNc2nn[nH]n2)cc1` in Mtb hypoxia inh growth reads -6
`Cc1cc(Oc2ccccc2)nc(SCC(=O)Nc2ccc(Cl)cc2Cl)n1` in BJeLR lethal reads -9

(further entries)
SMILES	Mtb hypoxia inh	Mtb hypoxia inh growth	ugtP null kill	BJeLR lethal	Bead autofluor	PrP 5UTR inh	RN4220 kill
N/C(=N\OC(=O)c1ccc(Cl)cc1)c1cccnc1	6	14	4	-4	2472	-74	2.6
O=[N+]([O-])c1ccc(S(=O)(=O)NN=Cc2ccc3c(c2)OCO3)cc1	7&6	5&-5	12&16	.	2961	-15	7.8&11
CCCc1nnc(SCC(=O)Nc2ccc(NC(C)=O)cc2)n1-n1cccc1	-4	1	0	-2	5746	-24	-0.6
Cc1ccc(-n2nc3ccc(NC(=O)c4ccc5c(c4)OCO5)cc3n2)cc1	7	9	-9	-1	8451	.	0.2
c1ccc(N2CCN(C3CC4CCC3C4)CC2)cc1 (stereo not given)	6	11	2	-1	3816	-29	-0.7
O=C(NCC(=O)N1CCN(S(=O)(=O)/C=C/c2ccccc2)CC1)c1ccccc1F	0	9	2	4	4321	-11	2.5
Cc1cc(C=C2SC(N)=NC2=O)c(C)n1-c1ccc(F)cc1	9	1	-1	.	.	.	4.9
CCOc1cccc(OCCCNCCCOC)c1	19	6	1	-4	2638	-1	-9.6
CC(=O)N1CC2(NC(=O)c3ccccc3N2)c2ccccc21 (stereo not given)	-2	2	-17	0	5328	-3	1.5
Cc1cc(C)nc(NS(=O)(=O)c2ccc(NC(=O)CN3C(=O)c4ccccc4C3=O)cc2)n1	-2	6	-4	-1	.	.	1.0
CC1CCN(C(=O)c2ccc3ccccc3c2)CC1	.	.	-1	-1	5522	-46	3.6
O=C(OCC(O)C(O)COC(=O)c1ccccc1)c1ccccc1 (stereo not given)	.	.	8	.	4267	-17	0.6
CCOC(=O)c1cnc2c(CC)cccc2c1NCCN1CCOCC1	2	-12	3	2	3891	-16	2.6

Screening results deposited in PubChem by several laboratories.
